From PubChem
Vif A3G = inhibitors of Vif binding to APOBEC3G peptide, primary screen, biochemical, TR-FRET, GST-Vif 1-94, biotin-A3G peptide, dose response retest (AID 1117319). 0.57% of 260,000 active. inhibition, %; hits with a dose series show IC50 in µM. TR-FRET GST-Vif / biotin-A3G peptide binding; higher % means a stronger effect; test concentration not given here; strong numbers were not always called active;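 active = above the screen mean plus three standard deviations and confirmed in dose response; inconclusive = results disagree or hit not tested in dose response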;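 note: Vif residues 1-94 fused to GST binding biotinylated APOBEC3G peptide 110-148; 0% = full assay without inhibitor and 100% = GST in place of GST-Vif; retest series ran down from 100 µM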
HNF4A DNA FP = change in binding of human HNF4 alpha to DNA | 0.3% of 360,000 active | HNF4a-FITC DNA binding, fluorescence polarization, 1 h | P41235 | activity change, % at 10 µM; in the data active = activity change above about 30%, passing the limit was not always enough;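 note: controls were the assay level and a saturating level of protein; the project sought stronger binding though the title names inhibitors; some compounds called inactive have numbers as strong as hits; positive values seem to mean higher polarization but the record does not say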
rRNA inh HTS = inhibits bacterial ribosomal RNA function over humanized ribosomes. E. coli WT GFP vs humanized-ribosome RFP mutants, fluorescence, 24 h; active compounds read low; DMSO median 0, no signal -100. GFP signal change (wild-type ribosome), % (concentration not given with the values). 1.6% of 350,000 active. AID 720706;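 active = significant combined selectivity score with lowered wild-type GFP, culture density cut under 30%, mutant RFP and density less affected; inactive = any of these conditions unmet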; note: one replicate is shown; some compounds called inactive have numbers as strong as hits
ALR H2O2 inh = human ALR oxidase inhibition via reduced H2O2; P55789; purified ALR, DTT oxidation, H2O2 HRP-luminol luminescence; inhibition, % (test concentration not listed); 3.8% of 290,000 active; AID 485317;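 active = mean and each replicate at 75% or more; inconclusive = only one of the two met; inactive = neither met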;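 note: stock transfer was 7.5 nL into about 7.5 µL; 0% = neutral wells and 100% = wells with inactivated enzyme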
Target sequence (P55789 whole entry, looked up): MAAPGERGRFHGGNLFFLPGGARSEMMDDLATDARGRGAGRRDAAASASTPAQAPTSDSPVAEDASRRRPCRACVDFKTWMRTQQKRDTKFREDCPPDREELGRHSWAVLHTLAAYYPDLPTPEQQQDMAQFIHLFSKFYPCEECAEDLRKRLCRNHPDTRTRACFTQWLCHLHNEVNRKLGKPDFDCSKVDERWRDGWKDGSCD
FGF22 binding = shifts melting point of recombinant human FGF22; Q9HCT0; recombinant FGF22 thermal shift, SYPRO orange fluorescence; percent of sucrose octasulfate shift, DMSO zero; calls only at 9.99 µM; 1.5% of 340,000 active;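 active = melting point raised past a set limit in the mean and every replicate; inconclusive = no clear call; three in four hits are not shown here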
Target sequence (Q9HCT0 whole entry, looked up): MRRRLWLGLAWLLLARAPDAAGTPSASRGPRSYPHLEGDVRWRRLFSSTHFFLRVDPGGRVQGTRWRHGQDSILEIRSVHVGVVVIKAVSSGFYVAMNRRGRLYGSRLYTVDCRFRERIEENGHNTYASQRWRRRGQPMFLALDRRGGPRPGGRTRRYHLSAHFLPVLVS
Ecoli growth = inhibitors of Escherichia coli growth | 0.21% of 330,000 active | OD600 absorbance (test concentration not listed) | OD600, 23 h; active compounds read low;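 active = OD600 absorbance below the run mean of sample wells minus 3.6 SD, in any replicate, cut at about 0.56 in these data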;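 note: stock transfer was 300 nL into about 60 µL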
MLL AF4-AF9 inh = blocks AF4 peptide binding to human AF9; P42568; AlphaScreen, biotin-AF4 peptide binding to FLAG-AF9; inhibition, % at 10 µM; 0.47% of 350,000 active;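 active = every replicate reaching a set inhibition limit, whatever the replicate mean, cut at about 25% in these data; inconclusive = mean inhibition reaches that limit but some replicates miss it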;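 note: 0% = plate neutral control median and 100% = total signal loss; the record names both 10 and 1 µM as test concentration; the first replicate is given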
Target sequence (P42568 whole entry, looked up): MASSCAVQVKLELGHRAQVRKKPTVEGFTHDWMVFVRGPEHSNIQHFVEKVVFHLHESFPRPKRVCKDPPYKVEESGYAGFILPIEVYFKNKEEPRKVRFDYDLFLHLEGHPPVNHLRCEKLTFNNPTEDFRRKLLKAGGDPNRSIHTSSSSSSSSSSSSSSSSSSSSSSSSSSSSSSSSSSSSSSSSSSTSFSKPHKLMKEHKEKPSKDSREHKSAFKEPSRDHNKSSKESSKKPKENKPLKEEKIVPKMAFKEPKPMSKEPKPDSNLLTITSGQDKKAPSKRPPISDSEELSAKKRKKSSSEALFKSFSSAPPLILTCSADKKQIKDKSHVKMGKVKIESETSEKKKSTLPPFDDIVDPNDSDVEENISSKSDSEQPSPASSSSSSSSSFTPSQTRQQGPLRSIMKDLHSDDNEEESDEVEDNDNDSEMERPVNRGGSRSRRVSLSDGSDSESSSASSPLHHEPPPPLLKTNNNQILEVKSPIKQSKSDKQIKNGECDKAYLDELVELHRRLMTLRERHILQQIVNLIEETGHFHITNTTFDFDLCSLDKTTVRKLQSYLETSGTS
rRNA inh HTS OD600 = also measured in rRNA inh HTS; calls as there; OD600 change, %; measured here: OD600 growth;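 optical density of the mix in the first replicate; 0 = DMSO median and -100 = no signal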
rRNA inh HTS RFP = further read-out of rRNA inh HTS, marked with its call; RFP signal change, %; measured here: RFP humanized mutant strains;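 first replicate; 0 = DMSO median and -100 = no signal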
* = called active by the depositor; i = inactive; ? = inconclusive; nt = no result given.

SMILES	Vif A3G	HNF4A DNA FP	rRNA inh HTS	rRNA inh HTS OD600	rRNA inh HTS RFP	ALR H2O2 inh	FGF22 binding	Ecoli growth	MLL AF4-AF9 inh
O=c1nc2c(-c3ccccc3F)n[nH]n2c2ccccc12	3%	-0.3	nt	nt	nt	-10	nt	0.73	nt
CCCN1C[C@H](C)[C@@H](OC)CN(C)C(=O)c2ccc(NS(=O)(=O)c3cn(C)cn3)cc2OC[C@H]1C	nt	nt	2	0	-1.2	nt	i	nt	-1.0
CC(=O)C1=C(C)NC2(O)c3ccccc3C(=O)C12O (centres undefined)	-7%	-3.8	nt	nt	nt	-22	nt	0.71	nt
Cn1c(OCc2ccc3c(c2)OCO3)nc2c1c(=O)n(Cc1cccc(Cl)c1)c(=O)n2C	nt	-0.8	nt	nt	nt	-15	nt	0.79	nt
CCOc1ccc(NC(=O)CC2CC(C)(C)OC2=O)cc1 (centres undefined)	-3%	0.6	nt	nt	nt	-12	nt	0.72	nt
COC(=O)CCN1CCSCCS1(=O)=O	nt	nt	7	1	1.5	nt	i	nt	-2.9
O=S(=O)(c1ccc(Cl)cc1)N1CCCC(C(F)(F)F)C1 (centres undefined)	2%	3.1	20	17	2.1	-1	i	0.7	0.4
COc1ccc(C(=O)CC2SC(N)=NC2=O)cc1 (centres undefined)	?	-0.3	-5	-9	-6.5	-5	i	0.65	-1.1
COc1ccc(-n2ncc3c(NCc4ccc5c(c4)OCO5)ncnc32)cc1	-104%	2.6	nt	nt	nt	-5	nt	0.71	nt
Cc1cccc(C(=O)NCC(=O)NC(C)c2ccc(-n3ccnc3)cc2)c1 (centres undefined)	-2%	-1.7	-1	5	-1.1	-23	i	0.67	-36
CCCOc1ccc(N2C(=O)CC(N3CCC(c4nncn4CC)CC3)C2=O)cc1 (centres undefined)	3%	0.5	nt	nt	nt	0	nt	0.7	nt
Cc1noc(C)c1S(=O)(=O)N(C)C[C@H]1Oc2ccc(NC(=O)Nc3cccc4ccccc34)cc2CC(=O)N([C@@H](C)CO)C[C@@H]1C	nt	nt	-1	2	2.7	nt	i	nt	2.2
C#CCOC(=O)/C(=C/c1ccc(F)cc1)NC(C)=O	29%	-6.0	nt	nt	nt	nt	nt	0.7	nt
COc1ccc(NC(=O)N2CCCC2C(=O)Nc2ccccc2)cc1 (centres undefined)	1%	-3.4	nt	nt	nt	-4	nt	0.67	nt
CCN1CCN(c2ccc(S(=O)(=O)N3CCOCC3)cc2NC(=O)c2ccc(OCC(C)C)cc2)CC1	nt	0.9	-30	-55	28	nt	i	0.68	10
COc1ccc(NC(=O)C2CCCN2C(=O)NCc2ccccc2)c(OC)c1 (centres undefined)	-1%	1.8	nt	nt	nt	nt	nt	0.7	nt
Cc1c(N(C)S(=O)(=O)c2ccc(Cl)c(C(=O)NCC(C)(C)N3CCOCC3)c2)c(=O)n(-c2ccccc2)n1C	nt	4.2	3	18	-4.4	nt	i	0.71	4.5
C=CCn1cc(/C=N/NC(=O)COc2cccc3cccnc23)c2ccccc21	nt	3.1	-8	-15	5.4	-7	i	nt	5.8
COCc1cn(CC[C@@H]2CC[C@@H](NC(=O)Cc3cccnc3)[C@H](CO)O2)nn1	nt	nt	1	10	-2.7	nt	i	nt	-1.4
O=S(=O)(c1ccc(F)cc1)N1CCCCN2[C@H](CO)[C@@H](c3ccc(-c4cncnc4)cc3)[C@@H]2C1	nt	nt	0	-10	-2.2	nt	i	nt	-1.9
O=C(NC(=S)NCc1cccnc1)c1ccccc1	-1%	3.6	-13	-30	-4.3	3	i	0.66	-1.1
O=C(CSc1nnnn1-c1ccc(Cl)cc1)NNC(=O)c1ccc([N+](=O)[O-])cc1	19%	-1.2	nt	nt	nt	-8	nt	0.72	nt
CC(=O)OC1(C(F)(F)F)Oc2ccccc2NC1=O (centres undefined)	2%	1.9	nt	nt	nt	-14	nt	0.64	nt
CC(=O)Nc1ccc(S(=O)(=O)NCC(=O)OC(C)c2ccccc2Cl)cc1 (centres undefined)	3%	0.9	-15	-9	-9.8	1	i	0.7	-2.1
Cn1cc(CCC(=O)N2CCCC(C(=O)c3ccc(C(C)(C)C)cc3)C2)cn1 (centres undefined)	-5%	2.1	-23	-24	-2.3	-21	i	0.68	2.4
COc1ccc(NS(=O)(=O)c2ccc(NC(=O)c3ccc(N(C)S(C)(=O)=O)cc3)cc2)cc1	nt	-1.2	nt	nt	nt	-3	nt	0.64	nt
NC(=O)CC(NC(=O)Cc1ccc(Br)cc1)c1ccc(NCCc2ccccc2F)c([N+](=O)[O-])c1 (centres undefined)	nt	14	13	12	-8.8	2	i	0.71	1.6
COc1ccc(-c2nnc(SCc3ccccn3)n2C)cc1	5%	-0.1	nt	nt	nt	-2	nt	0.72	nt
COc1cccc(-c2nc(CS(=O)(=O)CC(=O)NC3CCC(C)CC3)c(C)o2)c1 (centres undefined)	-4%	0.2	-3	1	-1.1	31	i	0.68	-9.0
O=c1[nH][nH]c(=O)c2c(NS(=O)(=O)c3ccccc3)cccc12	10%	-3.5	-25	-27	-5.6	-2	i	0.63	2.4
CNC(=S)Nc1ccc(C)cc1	4%	-0.4	nt	nt	nt	0	nt	0.67	nt
CSC(=S)N/N=C/c1c[nH]c2ccccc12	nt	1.0	-14	-7	2.3	64	i	nt	33*
Cc1cc(C(=O)N2CCCC(Nc3ccccc3)C2)c2ccc(F)cc2n1 (centres undefined)	4%	1.5	-6	-6	-4.7	99*	i	0.74	0.6
CC(C)CCNC(=O)CN(Cc1ccc(F)cc1)C(=O)CCC(=O)Nc1ccccn1	nt	-2.2	1	11	-0.1	-3	i	0.67	8.9
O=C(COC(=O)c1ccc(Br)o1)Nc1ncc([N+](=O)[O-])s1	nt	-10	-28	-36	-0.8	97*	i	0.59	0.1
CC(=O)c1cccc(NC(=O)C2Cc3c(-c4ccccc4)ccnc3O2)c1 (centres undefined)	nt	0.7	-51	-70	-9.5	nt	i	nt	-0.3
COCCNC(=O)C[C@H]1C[C@@H]2c3cc(NC(=O)NC4CCCC4)ccc3O[C@@H]2[C@H](CO)O1	nt	nt	1	-2	0.7	nt	i	nt	-0.6
CCOC(=O)C1CCCN(Cc2c(C(=O)N3CCCCC3)nc3c(C)cccn23)C1 (centres undefined)	nt	1.0	-4	-6	2.0	nt	nt	0.7	-0.3
O=C(CN1C(=O)c2ccccc2C1=O)NCC(=O)OCC(=O)c1cccc([N+](=O)[O-])c1	88%	1.4	22	22	-2.4	-1	i	0.69	-0.7
O=C(NCCCN1CCOCC1)c1c(O)c2ccccc2[nH]c1=O	-1%	1.2	nt	nt	nt	-2	nt	0.72	nt
CC(C)=CC(=O)OCC(=O)Nc1ccc(Cl)cn1	-4%	-1.3	nt	nt	nt	-4	nt	0.64	nt
CC(C)NC(=O)Nc1ccc2c(c1)CC(=O)N([C@@H](C)CO)C[C@H](C)[C@H](CN(C)S(=O)(=O)c1cccs1)O2	nt	nt	2	4	1.9	nt	i	nt	-9.1
Cc1c(NC(=O)CN2C(=O)NC(C)(c3ccc4c(c3)OCCO4)C2=O)c(=O)n(-c2ccccc2)n1C (centres undefined)	16%	2.0	nt	nt	nt	2	nt	0.73	nt
N#C/C(=C\c1ccc2c(c1)OCO2)C(=O)NCc1ccco1	-6%	5.6	7	7	-0.9	1	i	0.69	-3.3
CCCC#Cc1ccc([C@H]2[C@@H](CO)N(C(=O)C3CCCC3)[C@H]2C#N)cc1	nt	nt	0	-2	-0.2	nt	i	nt	-2.8
Cc1ccc(OCc2cc(C(=O)N(C)CCc3ccccc3)no2)cc1C	4%	-0.9	-34	-37	-8.5	-1	i	0.69	-1.2
C[C@@H]1CN([C@H](C)CO)S(=O)(=O)c2ccc(C3=CCCCC3)cc2O[C@H]1CN(C)C(=O)C1CC1	nt	nt	-2	-13	2.9	nt	i	nt	-1.6
Cc1ccc(S(=O)(=O)N(C)C[C@H]2Oc3ncc(-c4ccccc4)cc3C(=O)N([C@@H](C)CO)C[C@H]2C)cc1	nt	nt	-4	-5	5.9	nt	i	nt	-7.3
COc1ccc(CNC(=O)/C=C/c2ccc(S(=O)(=O)N3CCOCC3)cc2)cc1	-5%	4.6	6	-3	-9.9	-2	i	0.6	-1.3
Cc1cccc(C(=O)NC2CC3CCCC(C2)N3Cc2ccccc2)c1 (centres undefined)	-8%	3.5	3	8	0.0	-9	i	0.69	-0.7
Cc1cc(C)c(C)c(OCC(=O)O/N=C(\N)c2cccnc2)c1	14%	1.1	21	0	1.6	-4	i	0.61	nt
COCCNc1nnc(SCC(=O)N2CCN(S(=O)(=O)c3ccccc3)CC2)s1	7%	-2.6	nt	nt	nt	nt	nt	0.7	nt
O=[N+]([O-])c1ccc(S(=O)(=O)N2CCN(Cc3c[nH]c4ccccc34)CC2)cc1	21%	2.3	nt	nt	nt	-23	nt	0.69	nt
CN(Cc1ccccc1)C(=O)C1CCN(S(C)(=O)=O)CC1	32%	-7.1	3	3	-4.0	-1	i	0.69	1.7
Cc1ccc(N2C(=O)CSC23C(=O)Nc2ccccc23)cc1 (centres undefined)	26%	-1.6	nt	nt	nt	-21	nt	0.7	nt
COc1ccc(CN2CCC(CO)(Cc3cccc(C(F)(F)F)c3)CC2)cc1Cn1cccn1	1%	1.6	3	-5	-5.6	nt	i	0.66	-0.2
Cc1ccc(NC(=S)N(CCCN2CCC(C)CC2)Cc2ccco2)cc1C	nt	3.2	10	2	3.9	-78	i	0.7	5.8
CCn1cc(C(=O)N[C@H](C(=O)NCCCO)C(C)C)c(=O)c2cc3c(cc21)OCO3	-2%	2.3	2	10	-2.7	nt	i	0.68	-5.6
CCC(c1nnnn1-c1ccc2c(c1)OCCO2)N1CCN(c2ccccn2)CC1 (centres undefined)	nt	3.9	-12	-15	11	nt	i	nt	1.1
Cc1nc(Nc2cccc(O)c2)c2c3c(sc2n1)CCC3	2%	1.5	-40	-46	-15	24	i	0.66	7.8

Sorted by the number under rRNA inh HTS RFP (largest number first): 3 of the compounds above
SMILES	Vif A3G	HNF4A DNA FP	rRNA inh HTS	rRNA inh HTS OD600	rRNA inh HTS RFP	ALR H2O2 inh	FGF22 binding	Ecoli growth	MLL AF4-AF9 inh
CCC(c1nnnn1-c1ccc2c(c1)OCCO2)N1CCN(c2ccccn2)CC1 (centres undefined)	nt	3.9	-12	-15	11	nt	i	nt	1.1
COCCNC(=O)C[C@H]1C[C@@H]2c3cc(NC(=O)NC4CCCC4)ccc3O[C@@H]2[C@H](CO)O1	nt	nt	1	-2	0.7	nt	i	nt	-0.6
CC(C)CCNC(=O)CN(Cc1ccc(F)cc1)C(=O)CCC(=O)Nc1ccccn1	nt	-2.2	1	11	-0.1	-3	i	0.67	8.9

Going on with the list:
SMILES	Vif A3G	HNF4A DNA FP	rRNA inh HTS	rRNA inh HTS OD600	rRNA inh HTS RFP	ALR H2O2 inh	FGF22 binding	Ecoli growth	MLL AF4-AF9 inh
Cc1ccc(NC(=O)C2=C(O)c3ccccc3N(C)S2(=O)=O)cc1	0%	-4.0	nt	nt	nt	20	nt	0.7	nt
O=C(NCc1ccc2c(c1)OCO2)c1cc(-c2ccncc2)nc2ccccc12	-4%	-2.6	-8	-7	-6.0	-10	i	0.66	0.2
Cc1ccc(S(=O)(=O)N(C)C[C@H]2OCCCC[C@H](C)Oc3ccc(NS(=O)(=O)c4cn(C)cn4)cc3C(=O)N([C@H](C)CO)C[C@H]2C)cc1	nt	nt	1	9	1.4	nt	i	nt	-5.2
O=C(CCS(=O)(=O)c1ccc(Br)s1)NCc1ccccc1	?	-2.4	nt	nt	nt	2	nt	0.67	nt
CCOC(=O)c1[nH]c2cc3c(cc2c1NC(=O)CN1CC(C)CC(C)C1)OCO3 (centres undefined)	-7%	-3.2	nt	nt	nt	2	nt	0.74	nt
CC(=O)C1=C(C)Nc2ncnn2C1c1ccccc1OCc1ccccc1 (centres undefined)	21%	0.4	nt	nt	nt	7	nt	0.68	nt

Only part of the results is shown, so the mix of outcomes need not match the whole.
